HSD17B inhib: blocks hydroxysteroid 17-beta dehydrogenase activity. AID 893. recombinant HSD17B10, NADH fluorescence kinetic; many of its hits are not listed in these tables. Potency, µM (top dose mostly 57.1 µM), for the others: top-dose activity change, negative = inhibition, most hits filed as inhibitors. 75,000 tested, 7.6% active. Q99714; active = well fitted inhibition curve with a large enough effect; inconclusive = small, poorly fitted or top-dose-only effect; inactive = no such curve, though single readings can be large or run the other way;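 also: the protocol describes HADH2 (HSD17B10) and not the HSD17B4 of the title; nearly all actives have a fitted effect of over 70% in size; most hits overshoot -100% by far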
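Activity followed as NADH fluorescence increase (ex 360, em 450 nm) every 30 seconds for 4 min, using final 90 uM beta-hydroxybutyryl CoA and 1 mM NAD+. Recombinant His-tagged enzyme, 20 nM, pH 9.0 Tris buffer, 15 min compound preincubation.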
An asterisk follows results filed as active; ? = inconclusive; [ ] = dose if it differs, or a comment. % is scaled to controls: 0 for no effect and ±100 for the full control effect; potency is read from the fitted curve at half-maximal effect. The list is partial (hit frequency here may not be typical).

#	structure	HSD17B inhib
1	CC(=O)C1C(c2ccc(F)cc2)NC(=O)NC1(O)C(F)(F)F (centres undefined)	1.2%
2	CC(=O)c1sc2ccccc2c1OC(=O)c1ccco1	5.0%
3	Cc1cc(NC(=O)CCCS(=O)(=O)c2nc(-c3cccs3)cc(C(F)(F)F)n2)no1	31.6µM*
4	CN(C1CCCCC1)S(=O)(=O)c1ccc(Cl)c(C(=O)O)c1	2.3%
5	CC(C)(C)n1ncc2c(=O)n(CC(=O)NC3CCCCC3)cnc21	-2.4%
6	CCCc1cc(=O)n2[nH]c(NCc3ccccc3Cl)nc2n1	10.0%
7	COc1ccc(NC(C)=O)cc1NC(=O)CSc1nnc(-c2ccccc2)n1N	5.0%
8	Cc1cc(Nc2ccc(Br)c(C)c2)n2nc(C)nc2n1	-2.1%
9	COCCn1c(SCC(N)=O)nc2c(c1=O)SC(C)C2 (centres undefined)	?
10	CC(=O)Nc1ccc(OCC(O)CN2CCN(c3cc(Cl)ccc3C)CC2)cc1 (centres undefined)	-4.2%
11	COc1cccc(C2CC(c3ccccc3Cl)Nc3nc(N)nn32)c1 (centres undefined)	2.5%
12	C=CC(=O)N1C(=O)c2ccccc2S1(=O)=O	-4.2%[11.4 µM]
13	OC(COCc1cccs1)CN1CCN(c2ccccn2)CC1 (centres undefined)	8.3%
14	Oc1ccccc1-c1nnc(SCCN2CCOCC2)n1Cc1ccccc1	-7.2%
15	CCOC(=O)c1[nH]cnc1C(=O)Nc1ccncc1	0.9%
16	CCOC(=O)C1CCCN(C(=O)COC(=O)c2cc(=O)c3ccccc3o2)C1 (centres undefined)	1.9%
17	CC(C)CC(C(=O)Nn1cnnc1)N1C(=O)c2ccccc2C1=O (centres undefined)	2.4%
18	CC(C)c1nnc(NC(=O)CCC(=O)Nc2ccc(F)cc2)s1	1.4%
19	COC(=O)c1ccc(COc2ccc3c(C)c(C)c(=O)oc3c2)o1	12.6µM*
20	CCCc1cc(C(=O)NC2CCCCC2)no1	8.8%

Random excerpt: three records from the list, in no set order.
#	structure	HSD17B inhib
11	COc1cccc(C2CC(c3ccccc3Cl)Nc3nc(N)nn32)c1 (centres undefined)	2.5%
7	COc1ccc(NC(C)=O)cc1NC(=O)CSc1nnc(-c2ccccc2)n1N	5.0%
14	Oc1ccccc1-c1nnc(SCCN2CCOCC2)n1Cc1ccccc1	-7.2%

Following part.
#	structure	HSD17B inhib
21	Cc1ccc(Cl)cc1N1CCN(C(=O)COc2ccc(S(=O)(=O)NC(C)C)cc2)CC1	-2.8%
22	CCN1C(=O)c2ccc(C(=O)NCc3ccccc3)cc2C1=O	11.3%
23	Cc1noc(C)c1C(=O)N1CCC2(CCCN(C(=O)Nc3cccc(F)c3)C2)CC1	-1.8%
24	CCS(=O)(=O)N1CCN(c2nc(-c3ccccc3)cs2)CC1	-7.9%
25	CC(C)OCC(O)Cn1c(N2CCCC2)nc2c1c(=O)[nH]c(=O)n2C (centres undefined)	-6.8%
26	Cc1csc(NC(=O)CCCSc2nc3ccccc3s2)n1	-8.6%
27	CC(C)NC(=O)N1CCCC2(CCN(C(=O)c3cccc(F)c3)CC2)C1	-0.1%
28	COc1cccc(Cn2c(=O)cnc3cnc(Nc4cccc(OC)c4)nc32)c1	5.7%
29	O=C1CCC(C(=O)Nc2ccc(OC(F)F)cc2)N1 (centres undefined)	15.9%
30	CCn1c(C(=O)N2CCc3ccccc3C2)cc2sccc21	-1.8%
31	Cc1nc(NC(=O)CSc2nc3cccnc3n2C2CCCCC2)sc1C	-7.4%
32	Cc1cc(CN2CCN(CCC#N)CC2)c(O)c(C2(C)CCCCC2)c1	0.9%
33	CC(=O)NC1CC2CCCC(C1)N2C(=O)Nc1ccc(Cl)c(C(F)(F)F)c1 (centres undefined)	2.7%
34	Cc1cc(NC(=O)c2cc3nc(C4CC4)cc(C(F)(F)F)n3n2)no1	?
35	CC(C)OC(=O)CSc1n[nH]c(-c2cccnc2)n1	0.4%
36	C[C@](N)(C(=O)O)c1ccc(-c2nn[nH]n2)cc1	-10.3%
37	CCc1ccc2nc(N3CCN(C)CC3)c(C#N)cc2c1	0.0%
38	Cc1ccc(N(C(=O)C2CCCC2)C2C=CS(=O)(=O)C2)cc1C (centres undefined)	3.5%
39	O=C(c1cccn2c(=O)c3ccccc3nc12)N1CCN(c2ccccn2)CC1	-6.5%
40	CC(C)(C)OC(=O)N[C@@H](Cc1ccccc1)c1nnc(SCC(=O)O)o1	3.7%

Continuation:
#	structure	HSD17B inhib
41	COCCNS(=O)(=O)c1ccc(C2CNC(=O)C2)cc1 (centres undefined)	5.0%
42	CCc1cc2c(=O)c(-c3nc4ccccc4[nH]3)coc2c(CN2CCC(C)CC2)c1O	-17.4%
43	O=C1C(=C2CCCCC2)SC(=S)N1Cc1ccco1	-19.8%
44	Cc1ccc(-c2nc(CS(=O)CC(=O)NCCCN3CC(C)CC(C)C3)c(C)o2)cc1 (centres undefined)	0.8%
45	CCN(CC)CCOc1cc2c(nn1)Oc1ccccc1N2C	25.1µM*
46	CCOc1cc(-c2nnc(-c3ccco3)o2)cc(OCC)c1OCC	25.1µM*
47	CCCCCC(N)=O	-2.0%
48	CCOc1cc(-c2nn3cnnc3s2)cc(OCC)c1OCC	-24.1%
49	CCOC(=O)c1c(NC(=O)CSc2nnc(-c3ccco3)o2)sc(C(C)=O)c1C	-0.1%
50	CCOC(=O)CSc1nc2c(c(=O)n(Cc3ccccc3Cl)c(=O)n2C)n1C	0.8%
51	COCC(=O)n1nc(-c2ccccc2)nc1NCc1ccc(F)cc1	?
52	Cc1ccc2nc(C3CCN(C(=O)NCc4ccccc4)CC3)[nH]c2c1	7.5%
53	O=C(NCc1nc2ccccc2[nH]1)c1cc2ccccc2oc1=O	?
54	Cc1ccc(CN2C3=NC(=O)CN3c3ccccc32)cc1	27.7%
55	O=C(Nc1ccc2c(c1)OCO2)C(c1ccccc1)N1CCC2(CC1)OCCO2 (centres undefined)	7.1%
56	CC(=O)Nc1ccc(S(=O)(=O)n2cnc(C)c2)cc1	18.5%
57	COC(=O)c1ccc(C)c(NC(=O)CN2C(=O)c3ccccc3S2(=O)=O)c1	20.1%
58	Cc1cccc(N2CC(c3nc4ccccc4n3C)CC2=O)c1C (centres undefined)	8.3%
59	CCOC(=O)C1=C(C)C(c2ccc(OC)cc2OC)NC(=O)N1 (centres undefined)	22.7%
60	O=C(Nc1sc2c(c1C(=O)O)CCCCC2)c1ccco1	5.8%

Continuation.
#	structure	HSD17B inhib
61	O=C(NCc1cccc(F)c1)C1CCN(S(=O)(=O)Cc2ccccc2)CC1	1.6%
62	COc1cccc(-c2ccc3ncnc(NCCc4c[nH]c5ccc(OC)cc45)c3c2)c1	2.0%
63	CC12CCC(C(=O)N3CCCCC3)(CC1=O)C2(C)C (centres undefined)	-7.0%
64	CCOC(=O)c1cn(CC(=O)Nc2ccc(CC)cc2)nn1	8.2%
65	COc1cccc(CNC(=O)C(CCSC)NS(=O)(=O)c2ccc3c(c2)oc(=O)n3C)c1 (centres undefined)	7.5%
66	CSc1nc(N)c2ncn([C@@H]3O[C@@H](COP(=O)(O)OP(=O)(O)O)[C@@H](O)[C@H]3O)c2n1	-1.9%
67	CCOC(=O)Cc1csc(NS(=O)(=O)Cc2ccccc2)n1	3.4%
68	CN1C(=O)CCC1(O)c1ccccc1 (centres undefined)	4.5%
69	CC(C)c1cc(NC(=O)C(C)(C)C)cc(C(C)C)c1O	0.6%
70	COc1ccc(OC)c(-n2nnnc2SCC(=O)Nc2ccc3c(c2)OCCO3)c1	12.1%
71	C/C(=C(\C#N)C(=O)NCCCN1CCOCC1)N(C)C	-8.0%
72	Cc1ccc(-c2nnn(CC(=O)N(CC(=O)NC3CCCC3)c3cnc4ccccc4c3)n2)o1	9.8%
73	CCCCCCC1=Cc2cc(OC)c(OC)cc2C(C(C(C)=O)C(=O)OCC)O1 (centres undefined)	4.1%[11.4 µM]
74	O=C(Oc1ccc(-c2nnco2)cc1)N(c1ccccc1)c1ccccc1	-0.8%
75	Cc1nc(-c2ccccc2)cc(=O)[nH]1	5.8%
76	CS(=O)(=O)c1cccc(C(=O)Oc2ccccc2)c1	-2.6%
77	Cc1c(Br)cc(C(=O)N2CCCC2)c(C)c1C	-5.5%
78	CN[C@@H](CC(C)C)C(=O)N[C@@H]1C(=O)N[C@H](CC(N)=O)C(=O)N[C@@H]2C(=O)N[C@H]3C(=O)N[C@H](C(=O)N[C@H](C(=O)O)c4cc(O)cc(O)c4-c4cc3ccc4O)[C@H](O)c3ccc(c(Cl)c3)Oc3cc2cc(c3O[C@H]2O[C@@H](CO)[C@@H](O)[C@@H](O)[C@@H]2O[C@@H]2C[C@](C)(N)[C@H](O)[C@H](C)O2)Oc2ccc(cc2Cl)[C@@H]1O	2.7%[25.6 µM]
79	O=C(c1cccc(Cl)c1Cl)N1CCN(c2ccccn2)CC1	-11.8%
80	COCCn1nnnc1CN1CCC(NC(=O)c2ccc(Br)cc2)CC1	-1.7%

(listing goes on)
#	structure	HSD17B inhib
81	CC(=O)C1=C(O)C(=O)N(CC(=O)O)C1c1ccccc1Cl (centres undefined)	-6.3%
82	CC1=C(C(=O)Nc2ccccc2)C(c2ccco2)n2ncnc2N1 (centres undefined)	9.2%
83	Cn1c(=O)c2c(nc(CN3CCOCC3)n2CCc2ccccc2)n(C)c1=O	-3.4%
84	CCCC(=O)OC(=O)CCC	4.0%
85	CCOC(=O)C1(C)NC(c2ccc(OC)c(OC)c2)C2C(=O)N(CC)C(=O)C21 (centres undefined)	1.3%
86	CCCCn1c(SCc2cc(=O)n3ccsc3n2)nc2cc(C(=O)OC)ccc2c1=O	-22.7%
87	CCN1CCN(C(c2cccs2)C(C)NC(=O)c2cccnc2)CC1 (centres undefined)	14.1%
88	CCOC(=O)c1ccc(N2C(=O)CC(N3CCC(C(=O)OCC)CC3)C2=O)cc1 (centres undefined)	-6.0%
89	Clc1cnccn1	-5.6%[25.6 µM]
90	CCOc1ccc(NC(=O)NCCN2C(C)CCCC2C)cc1 (centres undefined)	8.3%
91	COc1ccc(Cn2nnc(C(=O)Nc3ccc(F)cc3)c2N)cc1	-25.5%
92	Cc1ccc(S(=O)(=O)N[C@@H](Cc2ccccc2)C(=O)CCl)cc1	-8.0%
93	CCC(=O)Nc1ccc(C(=O)CSc2nnc(-c3cccnc3)o2)cc1	-0.9%
94	O=C(NCCc1csc(-c2cccnc2)n1)c1cccs1	-3.7%
95	CCOC(=O)c1nn(-c2ccccc2)c(=O)c(C#N)c1C	-16.0%
96	Cn1c(C(=O)N2CCc3ccccc3C2)cc2oc3ccccc3c21	?
97	O=C(NC(Nc1ncccn1)C(=O)c1ccccc1)c1ccccc1 (centres undefined)	3.7%
98	N/N=C1/CC(=O)NC(=O)N1	3.98µM*
99	Cc1[nH]n(CCC#N)c(=O)c1CC(=O)N1CCN(c2ccccc2)CC1	3.9%
100	CCOC(=O)c1c(NC(=O)c2ccc(Br)o2)sc2c1CCCC2	25.1µM*

Additional results.
#	structure	HSD17B inhib
101	Cc1cc2c(nc1C)CCCCN2C[C@H](C)O/N=C1/[C@H]2O[C@@H]2[C@@H](O)[C@H]2[C@H]1CCn1c(=O)n(-c3ccccc3)c(=O)n12	0.8%[11.4 µM]
102	Cc1ccc2oc(NC(=O)N3CCOCC3)cc(=O)c2c1	-4.5%
103	CCN(CC)CCCNc1cc2n(c(=O)n1)CCc1cc(OC)c(OC)cc1-2	31.6µM*
104	CCNC(=O)c1c(C)nc2ccccn12	?
105	CC(=O)Oc1c(S(=O)(=O)c2ccccc2)c(C)nn1C(C)(C)C	-1.7%
106	CC(C)(C)n1ncc2c(=O)n(CC(=O)Nc3ccc4c(c3)OCO4)cnc21	6.3%
107	COc1cc(S(=O)(=O)NCc2ccc3c(c2)OCO3)ccc1Cl	-4.2%
108	Cc1ccc(-n2ncc(C#N)c2/N=C/N2CCCCCC2)cc1	-12.4%
109	Cc1noc(C)c1COc1ccc(C(=O)OC(C)C(=O)Nc2ccc(N3CCOCC3)cc2)cc1 (centres undefined)	10.3%
110	N#Cc1ccccc1NC(=O)c1ccccc1OCC(=O)NCc1ccco1	-5.4%
111	COc1cc(-c2nc(-c3cccc(C(F)(F)F)c3)no2)cc(OC)c1OC	?
112	Cc1nc2c(C)cccn2c1/C(O)=C1\C(=O)C(=O)N(CCN(C)C)C1c1ccncc1 (centres undefined)	-11.7%
113	COCCNC(=O)COc1ccc(C)c(C)c1	9.6%
114	CC(C)(C)n1nc2c(c1NC(=O)c1ccc(S(=O)(=O)N3CCCCC3)cc1)CS(=O)C2 (centres undefined)	5.5%
115	CCN(CC)C(=O)CSc1nnc(-c2ccc(S(=O)(=O)NCc3ccccc3Cl)cc2)o1	?
116	Cc1cccc(-c2noc(CCC(=O)Nc3ccccc3)n2)c1	-8.1%
117	Cc1nc(-c2cnn(-c3ccccc3)c2)c2cc(C)oc2n1	31.6µM*
118	Clc1ccc(OCc2nc(-c3ccncc3)no2)c(Cl)c1	-8.6%
119	O=P(O)(O)c1ccccc1OCCOCCOc1ccccc1P(=O)(O)O	-2.3%
120	O=C(CN1C(=O)c2ccccc2C1=O)Nc1ccc(S(=O)(=O)NCC2CCCO2)cc1 (centres undefined)	-1.7%

Continuation.
#	structure	HSD17B inhib
121	CC(NS(=O)(=O)c1ccc(F)cc1)C(=O)NCc1ccncc1 (centres undefined)	-4.5%
122	Cc1cc(NS(=O)(=O)c2ccc(NC(=O)CCCOc3ccccc3)cc2)no1	-0.3%
123	CCOC(=O)c1ccc(NC(=O)N2CCN(S(C)(=O)=O)CC2)cc1	4.8%
124	O=c1[nH]n(-c2cccc3cccnc23)c(=O)c2ccccc12	-1.3%
125	COc1ccc(NC(=O)Cn2nnc(-c3ccc(CN4CCOCC4)cc3)n2)c(OC)c1	9.4%
126	CC(C)(C)c1cc(Br)c(O)c(CN(Cc2cc(C(C)(C)C)cc(Br)c2O)C2CCCCC2)c1	-0.7%[11.4 µM]
